From PubChem BioAssay
ID4 SMM – binds human ID4 protein on microarray. small molecule microarray, Flag-ID4 binding, fluorescence F/B. calls only. 31,000 compounds, 1.2% hits. AID 624137;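 active = spot signal over background at p below 0.07 in all four prints; compounds were printed on slides so no solution concentration is given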;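 also: a binder raises fluorescence above local background on the spot; about 2 pmol printed per array spot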
Target sequence (P47928 whole entry, looked up): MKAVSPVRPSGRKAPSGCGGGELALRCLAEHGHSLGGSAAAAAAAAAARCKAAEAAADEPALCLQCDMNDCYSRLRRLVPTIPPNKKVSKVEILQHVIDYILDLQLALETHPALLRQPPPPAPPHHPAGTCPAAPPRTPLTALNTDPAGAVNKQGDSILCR
Calls only; i = inactive.

Start of the data: the first 6 entries, ahead of the listing:
nr	smiles	ID4 SMM
1	COc1ccc(C(=O)NCc2ccc(C(=O)O)o2)cc1	i
2	Nc1nnc(SCC(=O)Nc2ccc(I)cc2)s1	i
3	O=[N+]([O-])c1ccc(OCc2nc(-c3ccncc3)no2)cc1	i
4	Cc1cc(NC(=O)/C=C\c2ccccc2)nc2c1c(=O)oc1ccccc12	i
5	CCCN(C)C[C@@H]1Oc2cc(C#Cc3ccc(F)cc3)ccc2S(=O)(=O)N([C@@H](C)CO)C[C@@H]1C	i
6	CC(C)C#Cc1cnc2c(c1)C(=O)N([C@H](C)CO)C[C@@H](C)[C@H](CN(C)C(=O)c1ccccn1)O2	i

The listing (from the top)
nr	smiles	ID4 SMM
1	COc1ccc(C(=O)NCc2ccc(C(=O)O)o2)cc1	i
2	Nc1nnc(SCC(=O)Nc2ccc(I)cc2)s1	i
3	O=[N+]([O-])c1ccc(OCc2nc(-c3ccncc3)no2)cc1	i
4	Cc1cc(NC(=O)/C=C\c2ccccc2)nc2c1c(=O)oc1ccccc12	i
5	CCCN(C)C[C@@H]1Oc2cc(C#Cc3ccc(F)cc3)ccc2S(=O)(=O)N([C@@H](C)CO)C[C@@H]1C	i
6	CC(C)C#Cc1cnc2c(c1)C(=O)N([C@H](C)CO)C[C@@H](C)[C@H](CN(C)C(=O)c1ccccn1)O2	i
7	Cn1nnnc1SCC(=O)Nc1ncccn1	i
8	COc1ccccc1-c1ccc2c(c1)O[C@H](CN(C)C(=O)c1ccccc1)[C@@H](C)CN([C@H](C)CO)S2(=O)=O	i
9	Cc1noc(C)c1NC(=O)N(C)C[C@H]1Oc2cc(C#CCN(C)C)ccc2S(=O)(=O)N([C@H](C)CO)C[C@H]1C	i
10	COc1cc(Cl)c(C)cc1NC(=O)C1CCC(=O)N1S(=O)(=O)c1ccc(C)cc1 (configuration not stated)	i

Further results
nr	smiles	ID4 SMM
11	COc1ccccc1CCNC(=O)c1cnccn1	i
12	Cc1ccc(C)c(NC(=O)CN(c2ccc(C)c(Cl)c2)S(C)(=O)=O)c1	i
13	O=C(NCc1ccccn1)c1cc(-c2cccnc2)nc2ccc(Br)cc12	i
14	COc1ccc(Cl)cc1N(CC(=O)Nc1ccc(Br)cc1F)S(C)(=O)=O	i
15	c1ccc(-c2csc3ncn4cnnc4c23)cc1	i
16	CCn1c(O)c(/C=C2/C=CC=N2)c(=O)[nH]c1=S	i
17	O=C(Cn1cnc2scc(-c3cccc([N+](=O)[O-])c3)c2c1=O)Nc1ccc(F)c(Cl)c1	i
18	C[C@H]1CN([C@@H](C)CO)C(=O)c2cc(Br)cnc2O[C@@H]1CN(C)Cc1ccncc1	i
19	CCOc1ccc(OCC(=O)Nc2cccc(C(=O)O)c2)cc1	i
20	CCC(=O)N(C)C[C@@H]1Oc2ncc(-c3ccc(C)cc3)cc2C(=O)N([C@H](C)CO)C[C@@H]1C	i

In a second layout: four of the compounds above
11) COc1ccccc1CCNC(=O)c1cnccn1
- ID4 SMM: i
12) Cc1ccc(C)c(NC(=O)CN(c2ccc(C)c(Cl)c2)S(C)(=O)=O)c1
- ID4 SMM: i
13) O=C(NCc1ccccn1)c1cc(-c2cccnc2)nc2ccc(Br)cc12
- ID4 SMM: i
14) COc1ccc(Cl)cc1N(CC(=O)Nc1ccc(Br)cc1F)S(C)(=O)=O
- ID4 SMM: i

The listing continues:
nr	smiles	ID4 SMM
21	CC(C)CC#Cc1ccc2c(c1)O[C@H](CN(C)CC1CCOCC1)[C@@H](C)CN([C@H](C)CO)S2(=O)=O	i
22	Cc1cc(NC(=O)CN(c2ccc(Cl)cc2)S(C)(=O)=O)ccc1Br	i
23	CC(=O)N[C@@H]1CC[C@@H](CC(=O)NCC2CCCCC2)O[C@H]1CO	i
24	C[C@H](CO)N1C[C@H](C)[C@H](CN(C)Cc2ccc(Cl)c(Cl)c2)OCc2cnnn2CCCC1=O	i
25	Cc1cc(=O)oc2cc(NC(=S)NCCCN3CCCC3=O)ccc12	i
26	COc1ccc(C(C)=O)cc1CSc1nnc(-c2ccc(Br)cc2)n1-c1ccccc1	i
27	S=c1[nH]nc(Cn2c(-c3ccccn3)nc3ccccc32)n1-c1cc(Cl)cc(Cl)c1	i
28	CC(=O)N(C)C[C@H]1Oc2ncc(C#CCc3ccccc3)cc2C(=O)N([C@@H](C)CO)C[C@H]1C	i
29	O=C(Nc1ccc2c(c1)[C@@H]1C[C@@H](CC(=O)N3CCc4ccccc4C3)O[C@H](CO)[C@@H]1O2)C1CCC1	i
30	Cc1cccc(OCC(=O)Nc2ccccc2C(=O)NC2CCCCC2)c1	i

Following part
nr	smiles	ID4 SMM
31	CCCN(C)C[C@@H]1Oc2cc(C3=CCCCC3)ccc2S(=O)(=O)N([C@@H](C)CO)C[C@H]1C	i
32	COCC(=O)Nc1ccc2c(c1)[C@H]1C[C@H](CC(=O)NCc3ccc(-c4ccccc4)cc3)O[C@H](CO)[C@H]1O2	i
33	COc1ccccc1S(=O)(=O)N[C@@H]1C=C[C@@H](CC(=O)N2CCOCC2)O[C@@H]1CO	i
34	CCn1c(SCC(=O)Nc2ccccc2OC)nnc1-c1ccc(N)cc1	i
35	CCC(=O)Nc1nc2ccccc2n1CCN1CCOCC1	i
36	Cc1ccc(-n2c(SCC(=O)Nc3cccc(F)c3)nc3ccccc3c2=O)cc1	i
37	COC(=O)c1ccc(C(=O)OC)c(NC(=O)c2cc(-c3ccccn3)nc3c(C)c(C)ccc23)c1	i
38	COC(=O)C[C@@H]1CC[C@@H](NC(=O)c2ccccc2)[C@H](CO)O1	i
39	CCCNC(=O)N1[C@H](C#N)[C@@H](c2ccc(C3=CCCC3)cc2)[C@H]1CO	i
40	CC(Sc1nc(N)cc(=O)[nH]1)C(=O)Nc1cccc(Cl)c1 (configuration not stated)	i

A draw from above in order of number of heavy atoms, ascending.
nr	smiles	ID4 SMM
40	CC(Sc1nc(N)cc(=O)[nH]1)C(=O)Nc1cccc(Cl)c1 (configuration not stated)	i
35	CCC(=O)Nc1nc2ccccc2n1CCN1CCOCC1	i
36	Cc1ccc(-n2c(SCC(=O)Nc3cccc(F)c3)nc3ccccc3c2=O)cc1	i

Following part.
nr	smiles	ID4 SMM
41	O=C(CSc1ncn(-c2ccccc2)n1)Nc1ccc2c(c1)OCCO2	i
42	O=C(NCCN1CCOCC1)[C@@]1(Cc2ccccc2)COC(c2ccc(OCCCO)cc2)=N1	i
43	Cc1ccc(-c2nnc(SCC(=O)Nc3ccc(Br)c(Cl)c3)n2C)cc1	i
44	CC(C)C#Cc1cnc2c(c1)C(=O)N([C@H](C)CO)C[C@H](C)[C@H](CN(C)Cc1ccccn1)O2	i
45	Oc1ccc(-c2nc(-c3ccc(F)cc3)c(-c3ccncc3)[nH]2)cc1	i
46	CSc1ccccc1-n1nnnc1SCC(=O)Nc1ccccc1Cl	i
47	Cc1ccc(C)c(N(CC(=O)Nc2cccc([N+](=O)[O-])c2C)S(C)(=O)=O)c1	i
48	Cc1cccc(CN(C)C[C@@H]2Oc3ncc(-c4cccc(F)c4)cc3C(=O)N([C@H](C)CO)C[C@@H]2C)c1	i
49	O=C(Nc1ccc(Br)c2cccnc12)c1ccc(Cn2cc(Cl)cn2)o1	i
50	COCCCN=C1NS(=O)(=O)c2ccccc21	i

Next entries:
nr	smiles	ID4 SMM
51	O=S(=O)(c1ccccc1)c1nc(-c2ccccc2F)oc1NCc1cccnc1	i
52	COc1cccc(S(=O)(=O)Nc2ccc3c(c2)[C@H]2C[C@@H](CC(=O)NCc4ccc(Cl)cc4)O[C@H](CO)[C@H]2O3)c1	i
53	COc1ccc(C#Cc2cnc3c(c2)C(=O)N([C@H](C)CO)C[C@H](C)[C@H](CN(C)C)O3)cc1	i
54	CCOC(=O)Cn1c2ccc(Cl)cc2c2nc3ccccc3nc21	i
55	O=C1C(=O)N(CCCn2ccnc2)C(c2ccccc2)C1C(=O)c1cccs1 (configuration not stated)	i

The list is partial, so the mix of outcomes need not match the whole.
